# Compound activity (PubChem)
# MgrA DNA FP: S. aureus MgrA activity modulators, primary screen, biochemical, S. aureus Newman, fluorescence polarization; MgrA-DNA binding; inhibition, %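 (about 10 µg/mL by stock and volumes)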; 0.13% of 84,000 active; AID 602314, 2012;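 active = above 50% in either of two replicates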;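 note: 0% = protein plus DNA without compound and 100% = DNA alone without protein; higher means less MgrA bound to DNA so lower polarization; one replicate is shown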
# S aureus helic: inhibitors of S. aureus replicative helicase, primary screen, biochemical, fluorescence unwinding readout; replicative DNA helicase (DnaC/DnaB), Staphylococcus aureus; purified S. aureus helicase, fluorescence unwinding assay; about half of the hits fall short of the stated cut; inhibition, %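 (tested at about 80 µM)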; 0.05% of 120,000 active; AID 485395, 2010;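 active = both duplicates at 50% or more, or one of them with a favoured structure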;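 note: 0% = mean of negative control wells and 100% = mean of positive control wells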
# The depositor's hits bear a star; nt = no result given. Not all compounds are listed. The share of hits here may be higher or lower than overall.
# Every second line gives: MgrA DNA FP, S aureus helic
- NC(N)=NC(N)=Nc1cc(C(F)(F)F)cc(C(F)(F)F)c1
    -0.9, nt
- Cc1noc(C)c1C(=O)OCC(=O)Nc1ccc(SC(F)F)cc1
    nt, 13
- O=C1CCCc2c1[nH]c1ccccc21
    2.4, 13
- O=C1CC(c2ccc(S(=O)(=O)NCCOc3ccccc3)cc2)CN1 (stereo not drawn)
    1.6, 7
- O=C(N/N=C/c1ccccc1)Nc1ccccc1
    -0.7, 6
- Cc1ccc(-c2csc(N=C(N)N)n2)cc1
    0.1, nt
- O=S1(=O)CCN=C2C(Cl)=CC(C(F)(F)F)=CN21
    -1.2, 8
- O=C(Cc1ccccc1)Nn1cnc2c(cnn2-c2ccccc2)c1=O
    nt, 7
- CCc1c(C)nc2cc(-c3cc(OC)cc(OC)c3)nn2c1NCCCN1CCOCC1
    -1.2, 13
- Cc1nn(-c2ccc(Cl)cc2)c2sc(C(=O)N3CCCCC3)cc12
    nt, 3
- CCOC(=O)Cn1c(=O)sc2ccccc21
    -2.3, -4
- COc1cc(C(=O)NCC(=O)O)cc(OC)c1OC
    -1.3, nt
- Cc1nc(CSc2ccc(Cl)cc2)cs1
    -0.2, nt
- CC(C)(C)C(=O)OCc1nc(-c2ccc3c(c2)OCCCO3)cs1
    -1.1, nt
- OC(COC(c1ccccc1)c1ccccc1)CN1CCCCC1 (stereo not drawn)
    0.1, 21
- CCS(=O)(=O)CC(C)C
    -6.1, 20
- Clc1ccc(COc2cccc3cccnc23)cc1
    nt, -18
- COC(CN(C)S(=O)(=O)c1ccc(Br)cc1)OC
    0.1, 2
- CCOC(=O)CSc1n[nH]c2nc3sc4c(c3c(=O)n12)CC(C)(C)OC4
    nt, 2
- CN(C1CCCCC1)S(=O)(=O)c1cn(C)c(=O)n(C)c1=O
    nt, 11
- CCNC(=O)c1cccc(OC(C)C)c1
    -0.1, 3
- NC(=O)CN(CC(N)=O)S(=O)(=O)c1ccccc1
    1.8, -10
- O=C(c1ccc(C(=O)N2CCOCC2)s1)N1CCOCC1
    3.5, 19
- O=C(N/N=C1/CCSc2ccc(F)cc21)C1CC1
    nt, -15
- O=C(c1ccc(Cl)cc1)N1c2ccccc2OC1c1ccc2c(c1)OCO2 (stereo not drawn)
    nt, -1
- COc1ccc(CNCCN(C)C)cc1
    2.4, -18
- COc1ccccc1N(Cc1c(C)noc1C)S(=O)(=O)c1cccs1
    nt, -18
- O=C(Oc1ccc2ccccc2c1)N1CCOCC1
    -2.1, 5
- FC(F)(F)c1cc(N2N=NC3C4CC(C5CCCC54)C32N2CCOCC2)cc(C(F)(F)F)c1 (stereo not drawn)
    -0.6, nt
- O=C(Cn1ncc2c([nH]c3ccccc32)c1=O)Nc1ccc(F)cc1F
    1.5, 6

# 5 compounds drawn at random from those above, as already listed:
# Every second line gives: MgrA DNA FP, S aureus helic
- CCNC(=O)c1cccc(OC(C)C)c1
    -0.1, 3
- O=C(Cn1ncc2c([nH]c3ccccc32)c1=O)Nc1ccc(F)cc1F
    1.5, 6
- Cc1ccc(-c2csc(N=C(N)N)n2)cc1
    0.1, nt
- O=C(N/N=C1/CCSc2ccc(F)cc21)C1CC1
    nt, -15
- CN(C1CCCCC1)S(=O)(=O)c1cn(C)c(=O)n(C)c1=O
    nt, 11

# Later entries.
# Every second line gives: MgrA DNA FP, S aureus helic
- N#C/C(=C(/O)C(F)(F)F)c1nc2ccccc2[nH]1
    3.5, 2
- CN(CCN1CCOCC1)C1CCN(C(=O)CNC(=O)/C=C/c2cccs2)CC1
    nt, 2
- CCn1c(CN2CCCCC2C)nc2c1c(=O)n(C)c(=O)n2C (stereo not drawn)
    nt, 8
- O=C(c1ccc(Cl)cc1)c1cc2cc(Cl)cc(Cl)c2o1
    -1.7, nt
- CCn1c(=O)cc(SCC(=O)N2CCCCC2)c2ccccc21
    -0.3, 3
- Cc1nnc(SCc2cccc(C(=O)c3ccccc3)c2)[nH]c1=O
    1.0, 6
- O=C(/C=N/Nc1ccccc1)Nc1ccccc1C(=O)O
    2.0, nt
- COc1ccccc1CNc1ncccc1N1C(=O)CCC1=O
    nt, 5
- CCOC(=O)COc1ccccc1/C=N/O
    0.8, 5
- CC(C)(C)c1nn2cnnc2n(/N=C/c2ccccc2)c1=O
    nt, 10
- Cc1nc(S(=O)(=O)NC2CCCCC2)c(C#N)c(C)c1Cl
    nt, 11
- COCCn1c(SCC(=O)c2ccc3c(c2)CCCN3S(C)(=O)=O)nc2ccccc21
    nt, 3
- O=C(Oc1cc(=O)oc2c1c(=O)n1c3c(cccc23)CC1)c1ccccc1
    2.8, nt
- CC(=O)Nc1ccc2nc(NC(=O)/C=C/c3ccccc3)sc2c1
    nt, -9
- O=C(c1ccccc1)N1CCC(O)(c2cccnc2)CC1
    0.5, 8
- O=C(NCc1ccccc1)C1CC(=O)N(c2ccccc2)C1 (stereo not drawn)
    nt, 1
- CC(C)C(NC(=O)c1ccccc1)C(=O)N1CCCCCC1 (stereo not drawn)
    -0.3, -12
- CCCCC1(C)OC(=O)C(=Cc2ccc(OCC)c(OC)c2)C(=O)O1 (stereo not drawn)
    5.8, 9
- CCc1ccc(/C=N/N2CCOCC2)cc1
    nt, -2
- O=c1c2cc3c(=O)n(Cc4cccs4)ccc3nc2ccn1Cc1cccs1
    nt, 35
- CCOC(=O)/C(C#N)=C1\SCC(=O)N1c1ccc(OC)cc1
    nt, -7
- COc1cc(C(=O)Nc2ccc(-c3nnc4n3CCCCC4)cc2)cc(OC)c1OC
    nt, 10
- CC(CC#N)C(=O)c1ccc(Cl)cc1 (stereo not drawn)
    -1.8, -10
- Cc1ccccc1NC(=O)Cn1c(=O)n(CCCS(=O)(=O)C2CCCCC2)c(=O)c2ccccc21
    -1.3, 2
- COc1ccc2c(c1)CCc1c(C(=O)Nc3cc(C)n(Cc4ccc(Cl)cc4)n3)noc1-2
    nt, -19
- O=C(CSc1nc2sc3c(c2c(=O)[nH]1)CCCC3)NCc1ccccc1
    -2.6, nt
- O=C(c1ccc(S(=O)(=O)N2CCCCC2)cc1)n1cnc2ccccc21
    nt, -16
- CCC(C)OC(=O)C(C)Oc1ccc2c3c(c(=O)oc2c1)CCC3 (stereo not drawn)
    1.9, 7
- N#CC1=C(N)N=C(SCC(=O)Nc2nccs2)C(C(N)=O)C12CCCCC2 (stereo not drawn)
    nt, 3
- Cc1ccc(C)c(-n2nnnc2SCC(=O)Nc2cc(C(N)=O)cc(C(N)=O)c2)c1
    nt, -7

# (more compounds)
# Every second line gives: MgrA DNA FP, S aureus helic
- COC(=O)c1sccc1NC(=O)CC1(CC(=O)O)CCCC1
    nt, -8
- COC(=O)c1ccc(CSc2ncnc3[nH]ncc23)cc1
    nt, 0
- CC(C)CNC(=O)C1CC(c2ccccc2)=NO1 (stereo not drawn)
    1.1, nt
- CCn1c(-c2ccccc2)c(C(=O)CSc2nnc(-c3cccnc3)n2N)c2ccccc21
    nt, 31
- CC(C)C(=O)Nc1nc(OC(=O)N(c2ccccc2)c2ccccc2)c2[nH]cnc2n1
    0.5, -11
- CCOc1ccc(CCNC(=O)c2ccc(N3CCCC3=O)cc2)cc1OCC
    nt, 5
- c1ccc(CNC2CCCC2)nc1
    5.0, 17
- O=C(COC(=O)c1ccccc1Cl)NC1CCCC1
    nt, 11
- C=CCOc1ccccc1CN1CCCCC1
    -0.6, 7
- COC(=O)c1ccc(COC(=O)C23CC4CC(CC(O)(C4)C2)C3)o1
    nt, -6
- COc1ccc(C(=O)Cc2ccc(OC)c(OC)c2)c(OC)c1
    -0.1, 10
- O=C(O)c1cccc(-c2cc3ccccc3oc2=O)c1
    nt, 17
- N#Cc1ccc(OC(=O)Cc2coc3cc4c(cc23)CCC4)cc1
    nt, 4
- COC(=O)c1cnn2c(C(F)(F)F)cc(-c3ccccc3)nc12
    -0.8, 22
- O=C(Nn1cnc2c(cnn2-c2ccccc2)c1=O)c1ccccc1
    nt, 2
- Cc1ccc(NC(=O)CN2C(=O)CC(c3ccccc3)C2=O)cc1C (stereo not drawn)
    nt, -7
- COc1ccc(-c2nnc(SCCN3C(=O)c4ccccc4C3=O)o2)cc1
    nt, -14
- CNC(=O)C(C)n1c2ccccc2c2nc(=O)cc(C)n21 (stereo not drawn)
    -1.0, 13
- Cc1cccc(C)c1NC(=O)CCCn1c(C)c2cnn(-c3ccccc3)c(=O)c2c1C
    nt, 0
- COC(=O)c1cc(=O)n2c(sc3ccccc32)c1C#N
    -1.4, nt
- CCOC(=O)COc1ccc(/C=C2\C(=O)NC(=O)N(c3ccc(OC)cc3)C2=O)cc1OC
    0.9, nt
- O=C(N=Nc1c(O)[nH]c2ccc(Br)cc12)c1ccco1
    0.3, nt
- CC(Nc1nc(N2CCNCC2)nc2ccccc12)c1ccccc1 (stereo not drawn)
    0.6, 18
- COC(=O)c1cc(-c2ccccc2)c(N2CCCC2)s1
    nt, -11
- C=CCn1c(=O)c2ccccc2n2c(SCC(N)=O)nnc12
    nt, 8
- COC(=O)CNC(=O)c1ccco1
    nt, -3
- COc1ccc(N(Cc2nc3ccccc3o2)S(=O)(=O)c2cc(C)ccc2C)cc1
    nt, 7
- Cc1ccccc1NC(=O)c1c[nH]c2ccccc2c1=O
    -3.8, 6
- CN(C)c1cccc(NC(=O)c2ccncc2)c1
    3.5, -35
- Cc1noc(C)c1CSCC(=O)Nc1nccs1
    nt, 2

# Next section.
# Every second line gives: MgrA DNA FP, S aureus helic
- Cc1oncc1C(=S)Nc1ccccc1
    nt, -12
- CCN(CC)C(=O)c1scc2c1OCCO2
    nt, 8
- Cn1c(=NC(=O)CSCC(=O)N2CCCC2)sc2cc(Br)ccc21
    nt, 17
- CCCSc1nc2c(c(-c3ccco3)c1C#N)CCCC2
    17, -15
- CC1CCCCN1CCNC(=O)C1c2ccccc2C(=O)N(C2CCCC2)C1c1cccs1 (stereo not drawn)
    2.5, -2
- Cc1cc2ncc(-c3ccnc(SCc4c(Cl)cccc4Cl)n3)c(C)n2n1
    3.8, nt
- CC1=Nc2ccc(C)cc2N(Cc2ccccc2)C(=O)C1
    nt, 0
- O=C(/C=C/c1cccs1)Oc1c(Cl)cccc1Cl
    -2.5, nt
- CCCCn1c(CCc2ccc(S(=O)(=O)N3CCOCC3)cc2)nc2cc(S(N)(=O)=O)ccc21
    nt, -2
- Cc1ccc(S(=O)(=O)c2cnc(SCC(=O)N3CCCc4ccccc43)[nH]c2=O)cc1
    11, 11
- CCn1c(C(F)(F)F)nc2ccccc21
    2.2, nt
- O=c1ccc(-c2ccc(S(=O)(=O)NCCC3=CCCCC3)s2)n[nH]1
    nt, 16
- CCOC(=O)C1CCCN(C(=O)c2csc(-c3ccc4c(c3)CCO4)n2)C1 (stereo not drawn)
    -2.1, nt
- CCN(CCN1C(=O)CCC1=O)c1cccc(NC(C)=O)c1
    -1.1, nt
- CCCN1Cc2cccc(C(=O)NC3CCCCCC3)c2C1=O
    nt, 18
- C=CCN1C(=O)c2oc3ccccc3c(=O)c2C12C(=O)N(C)c1ccccc12 (stereo not drawn)
    -3.5, -4
- Cc1ccn2c(=O)c(NC(=O)C3CCCCC3)c(C)nc2c1
    nt, 10
- CCOC(=O)/C(C#N)=C1\C(=O)Nc2ccccc21
    3.1, 0
- O=C(NCCc1ccc(Cl)cc1)c1ccc2nccnc2c1
    -0.6, nt
- O=C(NCCS(=O)(=O)Cc1ccc(F)cc1)c1cccc(OC(F)(F)F)c1
    -0.2, nt
- COC(=O)Cn1c2ccccc2c2nc(=O)cc(C)n21
    nt, 3
- Cc1ccc2[nH]c3c(c2c1)CCCC3NC1CCCCC1 (stereo not drawn)
    1.6, 9
- O=C1S/C(=C\c2ccccc2)C(=O)N1CN1CCOCC1
    0.6, 9
- S=C1NCN(Cc2ccncc2)CN1
    -0.3, nt
- CC(C)c1ccccc1NC(=O)C1CCCCC1
    1.8, 4
- CCc1c(C)nc(SCC(=O)Nc2ccc(Br)cc2)c(C#N)c1C
    -1.8, nt
- CC(=O)N(CCOc1ccccc1)CCOc1ccccc1
    -2.3, 2
- Nc1nc2sc3c(c2cc1C(=O)NCC(=O)O)CCCC3
    nt, -32
- CCn1c(=O)cc(OCC(=O)N2CCCC2)c2ccccc21
    -2.2, 16
- CCC1CCCCN1C(=O)CSc1nnc(CNC(=O)c2ccco2)o1 (stereo not drawn)
    nt, 43

# Ordered by value in S aureus helic (descending): 3 of the compounds above.
# Every second line gives: MgrA DNA FP, S aureus helic
- Cc1ccn2c(=O)c(NC(=O)C3CCCCC3)c(C)nc2c1
    nt, 10
- CCN(CC)C(=O)c1scc2c1OCCO2
    nt, 8
- CCCSc1nc2c(c(-c3ccco3)c1C#N)CCCC2
    17, -15

# The list continues.
# Every second line gives: MgrA DNA FP, S aureus helic
- CC(C(=O)N1CCCC1)N1CCN(c2ccc(F)cc2)CC1 (stereo not drawn)
    -4.2, 3
- C=CCC(NC(C)c1ccco1)c1ccccc1 (stereo not drawn)
    -0.9, 6
- O=C(Nc1ccccc1)c1ccn(C(=O)c2ccccc2)n1
    2.6, -2
- CCCn1c(=NC(=O)c2cccs2)sc2cc(S(C)(=O)=O)ccc21
    nt, 14
- COc1ccc(C(=O)OCC(=O)c2cc3c4c(c2)CC(=O)N4CCC3)cc1Br
    nt, -12
- CC(C)CN(CC(C)C)C(=O)C1c2ccccc2Oc2ccccc21
    0.3, 9
- [O-][n+]1c2c(nn1-c1ccccc1)CCc1ccccc1-2
    nt, -4
- O=C(CCC(=O)N1CCC(c2ccccc2)=N1)N1CCN(c2ccccc2)CC1
    nt, -11
- NC(=O)NN=C1c2cc(S(=O)(=O)NCCO)ccc2-c2ccc(S(=O)(=O)NCCO)cc21
    nt, 15
- CCC1CCCCN1C(=O)Cn1c(=O)n(Cc2ccccc2)c(=O)c2c3c(sc21)CCC3 (stereo not drawn)
    -2.5, -1
- Cn1c(C(=O)NCc2cccs2)cc2c(=O)[nH]c3ccccc3c21
    nt, 4
